RE007 growth inh: less growth of the S. pombe RE007 Vpr strain. S. pombe RE007 Vpr strain, BacTiter-Glo ATP luminescence, 24 h; control for the full effect not named in the record. Potency, µM (highest dose often 92.2 µM), for the others: at the top dose activity change, negative = less growth. 0.21% of 360,000 active. AID 651644; active = well fitted falling curve with a large enough effect; inconclusive = small, poorly fitted or top-dose-only effect; inactive = no such curve, though single readings can be large or run the other way;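 further: on the % scale 0 is the no-effect control and ±100 the full control effect; nearly all actives have a fitted effect of over 50% in size; the assay follows cell death caused by Vpr and the record does not say whether a fall means rescue or toxicity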
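Fission yeast strain RE007, carrying one chromosomally integrated HIV-1 vpr copy, was seeded at OD 0.01 in PMG+AL medium with 23 nL pinned compound. After 24 h at 30 °C and 99% humidity, viability was read by BacTiter-Glo luminescence.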
Lassa entry inh: Lassa virus entry inhibition; Lassa virus pseudotype entry inhibition, cell reporter; control for the full effect not named in the record; Potency, µM (titrated, usually from 37.9 µM), for inactives: top-dose activity change, negative = inhibition, hits mostly inhibitors; 1.2% of 300,000 active; AID 540256; active means well fitted inhibition curve with a large enough effect; inconclusive means small, poorly fitted or top-dose-only effect, or effect the other way; inactive means flat fitted curve, though single readings scatter; tested in HEK293 cells; further: on the % scale 0 is the no-effect control and ±100 the full control effect; nearly all actives have a fitted effect of over 50% in size; luciferase read-out
MARV entry inh: blocks Marburg virus binding to or entry into cells; Marburg virus pseudotyped entry inhibition, cell reporter; control for the full effect not named in the record; about a third of the inactives were read at about 46 µM; Potency, µM (doses to about 37.8 µM), for the others: at the highest dose activity change, negative = inhibition, actives largely listed as inhibitors; 1.8% of 300,000 active; active = well fitted inhibition curve with a large enough effect; inconclusive = small, poorly fitted or top-dose-only effect, or effect the other way; inactive = flat fitted curve, though single readings scatter; tested in HEK293 cells; about a fifth of its hits are not listed in these tables; further: on the % scale 0 is the no-effect control and ±100 the full control effect; luciferase read-out
NS1 inh: inhibitors of influenza NS1 protein function; S. cerevisiae slowed by influenza A NS1, growth recovery by OD600; Potency, µM (top dose mostly 46.1 µM), for the others: top-dose activity, positive = more growth; 0.4% of 270,000 active; AID 2326; further: actives are rising curves; nearly all actives have a fitted effect of over 50% in size
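Compounds were scored for reversing the slow growth caused by influenza A NS1 in S. cerevisiae, measured by optical density at 600 nm. Assay medium contained 2% galactose at pH 6.0; NS1-free yeast of the same strain were the positive control.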
SARS PLP yeast: inhibitors of SARS-CoV papain-like protease in yeast; S. cerevisiae expressing SARS-CoV PLpro, growth rescue; control for the full effect not named in the record; Potency, µM (series often up to 32.9 µM), for the others: at the top dose activity, positive = growth rescue; 0.19% of 330,000 active; AID 485353; further: 0% is about no effect; nearly all actives have a fitted effect of over 55% in size; growth read by luminescence after 48 h
Cruzain inh noDet: blocks cruzain activity in detergent-free assay. P25779. purified cruzain, Z-FR-AMC fluorescence, no detergent. Potency, µM, inactives show max response, negative = inhibition, most hits filed as inhibitors. 2.3% of 200,000 active. AID 1476; active means well fitted curve in the direction sought with a large enough effect; inconclusive means small, poorly fitted or top-dose-only effect, or another doubt; inactive means no such curve, though single readings can be large; an effect the other way counts as inactive or inconclusive;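 further: plate controls were enzyme without inhibitor for no effect and buffer without enzyme for full effect; nearly all actives have a fitted effect of over 40% in size; top concentration of the series not given in the record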
Target sequence (P25779 123-467 limits assumed): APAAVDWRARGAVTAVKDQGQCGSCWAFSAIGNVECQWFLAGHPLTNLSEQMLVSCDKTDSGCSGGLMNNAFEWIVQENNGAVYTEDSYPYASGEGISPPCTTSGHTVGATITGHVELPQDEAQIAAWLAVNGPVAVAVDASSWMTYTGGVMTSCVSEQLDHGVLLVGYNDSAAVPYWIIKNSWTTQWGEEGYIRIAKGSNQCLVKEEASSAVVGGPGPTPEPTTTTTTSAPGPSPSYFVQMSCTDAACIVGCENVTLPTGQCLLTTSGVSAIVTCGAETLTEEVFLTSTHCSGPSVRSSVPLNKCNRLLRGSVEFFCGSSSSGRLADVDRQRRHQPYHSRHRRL
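Purified cruzain at 1.5 nM, pre-incubated 15 min with compound at room temperature in 100 mM sodium acetate pH 5.5, 5 mM DTT, 0.00005% Triton X-100. Reaction started with 2 uM Z-FR-AMC; AMC fluorescence increase over 60 s gives rate.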
2A StopGo: FMDV 2A StopGo reporter, luciferase signal | Potency, µM (top dose mostly 57.9 µM), for the others: at the top dose signal change, negative = less light | human cells with a luciferase reporter of 2A StopGo recoding; control for the full effect not named in the record | AID 1159524 | 1.2% of 410,000 active; active = well fitted falling curve with a large enough effect; inconclusive = small, poorly fitted or top-dose-only effect; inactive = no such curve, though single readings can be large or run the other way; tested in HEK293T cells; further: on the % scale 0 is the no-effect control and ±100 the full control effect; nearly all actives have a fitted effect of over 45% in size; luciferase light after 4 h
Cruzain inh Det: inhibitors of Trypanosoma cruzi cruzain with detergent. P25779. purified cruzain, Z-FR-AMC fluorescence, 0.01% Triton. 0.43% of 200,000 active. Potency, µM, without a hit: max response, negative = inhibition, most hits filed as inhibitors. AID 1478; active means well fitted curve in the direction sought with a large enough effect; inconclusive means small, poorly fitted or top-dose-only effect, or another doubt; inactive means no such curve, though single readings can be large; an effect the other way counts as inactive or inconclusive;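 further: plate controls were neutral wells for no effect and buffer without enzyme for full effect; nearly all actives have a fitted effect of over 40% in size; top concentration of the series not given in the record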
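Cysteine protease activity tested under reducing, mildly acidic conditions (100 mM sodium acetate pH 5.5, 5 mM DTT) plus 0.01% Triton X-100. Cruzain 1.5 nM; substrate Z-FR-AMC 2 uM; 15 min compound preincubation at room temperature.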
* = called active by the depositor; ? = inconclusive; . = no result given; [ ] = dose if it differs, or a comment. Unless noted, the call rests on the fitted dose curve; in most records, active means well fitted rising curve with a large enough effect; inconclusive means small, poorly fitted or top-dose-only effect; inactive means no such curve, though single readings can be large or run the other way. Potency means the concentration at half of the fitted maximal effect.

mol	Cruzain inh Det	2A StopGo	SARS PLP yeast	NS1 inh	RE007 growth inh	MARV entry inh	Lassa entry inh	Cruzain inh noDet
O=C(Cn1cc(S(=O)(=O)N2CCCC2)c(S(=O)(=O)N2CCCC2)c1)NCc1ccco1	.	8.8%	-1.5%	0.1%	20.5%	-10.5%[46.1 µM]	10.2%[46.1 µM]	.
O=C(O/N=C1/CCSc2ccccc21)c1ccc(F)cc1	-4.1%	39.4%[activator]	4.2%	-39.7%	-8.1%	11.8%	9.4%	-1.3%
COc1c(F)c(F)c(C(=O)O)c(Nc2ccc(C)cc2)c1F	-1.7%	-19.4%	-10.1%	-17.8%	14.8%	-0.2%	-6.7%	-6.8%
COc1cc(OC)cc(-n2nnc(-c3nc(-c4ccccc4Cl)no3)c2N)c1	-0.6%	35.0%[activator]	.	.	.	.	10.8%[46.1 µM]	-1.1%
COc1ccc(C)c(Cn2c(-c3nonc3N)nc3ccccc32)c1	-4.2%	-21.2%	?	11.2%	0.4%	?	?	-18.0%
Cc1ccc(S(=O)(=O)N2CCN(C(=S)NCc3ccc4c(c3)OCO4)CC2)cc1	.	16.8%	-1.1%	.	-2.3%	?	-8.4%	.
COc1ccc(CCNC(=O)CCc2ccc(S(=O)(=O)NC(C)C)cc2)cc1	-4.2%	2.8%	-0.8%	8.3%	-6.4%	26.1%	-3.8%	-12.5%
CCCCOc1cccc(C(=O)Nc2ccc(N3CCN(CC)CC3)cc2)c1	7.0%	7.3%	1.6%	9.1%	-10.0%	?	-28.6%	-3.3%
CC(Sc1nnc(-c2cccnc2)n1N)C(=O)NCCC1=CCCCC1 (stereo not given)	.	-17.8%	1.0%	.	1.1%	6.7%	-22.2%	.
CCc1ccc(Sc2cc(C(=O)NCCCN3CCCC(C)C3)c3ccccc3n2)cc1 (stereo not given)	1.0%	5.0%	.	.	.	.	?	-14.2%
c1csc(C2Nc3cccc4cccc(c34)N2)c1	-8.1%	1.9%	-7.1%	2.8%	-18.2%	-5.0%	-1.5%	7.94µM*
CCc1nn(CCCC(=O)N2CCC(C)CC2)c(=O)c2cc3occc3n12	.	3.0%	28.8%	-4.5%	13.5%	.	.	.
CN(C)C(=S)NC(=O)C(c1ccccc1)c1ccccc1	.	2.8%	0.8%	4.3%	7.0%	3.4%[46.1 µM]	-13.3%[46.1 µM]	.
CN(Cc1nc2ccccc2n1C)S(C)(=O)=O	5.3%	-18.4%	5.2%	-3.7%	5.3%	2.1%	-0.9%	14.9%
O=C(c1ccc(Cl)cc1)C1CCN(C(=O)NC2CCCCC2)CC1	-3.1%	-23.1%	-10.1%	-23.3%	12.5%	?	-19.2%[14.3 µM]	-13.9%
CC(C)(C)NC(=O)COC(=O)c1ccc(S(=O)(=O)N2CCCCCC2)cc1	-0.5%	-9.7%	0.5%	-2.2%	9.4%	-14.8%[46.1 µM]	-11.6%	6.4%
C/C(=N/NS(=O)(=O)c1ccc(C(C)C)cc1)c1ccncc1	.	20.0%	2.6%	-16.3%	11.2%	.	.	.
Cc1ccccc1NS(=O)(=O)c1ccc(N2CCCC2=O)cc1	6.2%	10.7%	-2.1%	-4.1%	6.0%	?	?	3.3%
CCOc1ccc(NC(=O)CC(NCc2ccccn2)C(=O)O)cc1 (stereo not given)	.	-4.5%	0.3%	.	9.7%	4.3%[46.1 µM]	-5.9%[46.1 µM]	.
COc1ccc([N+](=O)[O-])cc1NC(=O)c1cccnc1	.	-7.5%	3.2%	8.5%	-20.9%	?	-0.9%[46.1 µM]	.
CNC(=O)CCn1nc(-c2ccc(C)cc2)c2ccccc2c1=O	.	9.2%	-0.3%	-3.3%	-2.5%	-11.2%	-1.2%	.
CCN1CCN(c2ccc(NC(=O)c3ccc(Br)o3)cc2)CC1	.	28.1%	-0.2%	0.9%	1.1%	.	.	.
COCn1c(C(O)c2ccccc2)cc2ccccc21 (stereo not given)	.	-3.5%	2.3%	-5.6%	-8.7%	.	.	.
Cn1cccc1C(=O)OCc1ccc(F)cc1	.	24.5%	-1.1%	-2.2%	0.7%	-0.2%	5.0%	.
COc1cccc2c1C(=O)CC1C2CCC2CC(=O)CCC21C (stereo not given)	.	-22.1%	.	.	-2.3%	1.1%[46.1 µM]	8.2%[46.1 µM]	.
O=C(NCCOc1ccccc1)c1cccc(S(=O)(=O)NCc2ccccc2)c1	.	7.5%	6.4%	.	-9.3%	?	?	.
COc1ccc(CN(C)C(=O)COC(=O)c2ccc(-c3ccccc3)cc2)c(OC)c1OC	.	?	-4.5%	.	-3.0%	3.2%	-4.5%	.
CC1(CCc2ccccc2)NC(=O)N(CC(=O)N2CC(=O)Nc3ccccc32)C1=O (stereo not given)	.	-9.9%	0.3%	-2.2%	1.7%	16.5%[46.1 µM]	-8.2%[46.1 µM]	.
Cn1cnnc1SCC(=O)n1c2ccccc2c2ccccc21	-2.6%	-8.4%	-19.2%	-11.0%	-29.2%	5.4%	-14.4%	?
CN1CCN(c2ccc(NC(=O)c3ccc(Oc4ccccc4)cc3)cc2)CC1	.	-5.2%	-0.8%	-10.9%	-19.2%	?	?	.
Cc1ccc(-n2[nH]c(C)c(C=Nc3ccc(C)cn3)c2=O)cc1	-4.7%	.	-9.9%	-10.5%	?	-19.9%	?	-5.0%
Cc1c(CC(C)C)nc(N)c(C#N)c1-c1ccccc1	-3.8%	-24.2%	-4.0%	-7.2%	7.8%	?	?	-0.3%
O=C(COc1ncnc2ccccc12)c1ccc2c(c1)OCCO2	-1.1%	-2.0%	-4.5%	-48.4%	-4.2%	?	?	-22.8%
NC(=O)CSc1nnc(COc2ccc3ccccc3c2)o1	.	4.9%	3.3%	5.7%	7.5%	?	-11.4%[46.1 µM]	.
CCn1c(SCC(=O)c2cc(C)n(CC3CCCO3)c2C)nc2ccccc21 (stereo not given)	-3.4%	-11.5%	0.1%	-7.3%	4.9%	0.7%	19.1%	7.9%
Cc1noc(C)c1COc1ccccc1C(=O)N1CCN(S(=O)(=O)c2ccccc2C#N)CC1	.	-6.1%	.	.	0.5%	?	-1.5%	.
OC(CCNCCc1c[nH]c2ccccc12)C(F)(F)Cl (stereo not given)	.	1.5%	0.5%	.	11.5%	0.6%[46.1 µM]	3.0%	.
Cc1cccc(-c2nc3nc(C)cc(NCc4ccccc4Cl)n3n2)c1	-6.0%	-3.1%	.	.	.	.	-0.4%[46.1 µM]	9.2%
COc1ccc(N2CCN(C3CCCN(C(=O)c4cccc(C)n4)C3)CC2)cc1 (stereo not given)	.	14.2%	-1.5%	-10.8%	2.6%	18.7%	-6.1%	.
O=C(COc1ccc(F)cc1)NNC(=O)Cn1ccc(C(F)(F)F)n1	.	1.6%	0.1%	.	-10.9%	?	1.6%	.
CN(C)C(CNC(=O)c1ccc([N+](=O)[O-])cc1Cl)c1ccco1 (stereo not given)	.	23.1%	-0.4%	-0.5%	3.4%	-4.6%[46.1 µM]	-12.9%[46.1 µM]	.
Cc1nc(NC(=O)CSc2ccc(-c3nc4ccccc4[nH]3)cn2)sc1C	-0.5%	5.5%	3.4%	8.7%	-22.2%	?	21.1%	-12.7%
Oc1csc(Cc2nc(-c3ccc(Br)cc3)cs2)n1	.	34.9%[activator]	-5.8%	.	-5.5%	12.9%[46.1 µM]	-5.6%	.
COc1ccc(C[C@@H]2OC3(C=CC(=O)C=C3)O[C@H]2Cc2ccc(OC)cc2)cc1	.	14.1µM*	.	.	14.4%	2.51µM*	?	.
CS(=O)(=O)c1ccc2nc(NC(=O)Nc3cccc(Cl)c3)sc2c1	-2.5%	-5.4%	3.3%	26.9%	5.2%	?	?	?
O=C(O)c1cccc(Nc2nc(N3CCOCC3)nc(N3CCOCC3)n2)c1	-1.4%	17.2%	1.5%	17.9%	4.7%	30.0%	13.5%	-8.6%
COC(=O)C1C(=O)c2c([nH]c(C(=O)OCCOC(C)C)c2C)CC1C (stereo not given)	1.3%	1.4%	-0.1%	3.7%	6.4%	?	-7.9%	-4.2%
O=C(CN1CCN(c2ccccc2)CC1)Nc1cccc(C(F)(F)F)c1	-7.0%	-22.0%	-0.6%	?	5.2%	-7.5%	?	7.7%
Cc1cccc(CNC(=O)c2ccc(Cn3c(=O)c4cccn4c4cccnc43)cc2)c1	-2.0%	-15.0%	.	.	.	.	-8.5%[46.1 µM]	0.5%
CCCOc1cccc(C(=O)N(Cc2ccc(C)o2)C2CCS(=O)(=O)C2)c1 (stereo not given)	-4.1%	-24.2%	.	.	.	-18.6%[46.1 µM]	-12.8%[46.1 µM]	-3.0%
CC1(C)C(=O)N(c2ccccc2F)C(=O)c2ccccc21	.	0.5%	-1.2%	-90.8%	1.2%	0.5%	-0.6%	.
O=C1/C(=N\S(=O)(=O)c2cccs2)C([n+]2cccc(Cc3ccccc3)c2)=C([O-])c2ccccc21	.	?	0.0%	4.2%	-3.7%	2.82µM*	?	.
C=CCNC(=O)Nc1ccc(F)c(Cl)c1	.	20.3%	0.9%	-8.2%	-19.4%	.	.	.
Cc1ccc(-c2nnc(Nc3ccc(OC(F)(F)Cl)cc3)c3ccccc23)cc1S(=O)(=O)NC(C)(C)CO	-7.8%	13.8%	.	.	.	?	-9.2%[46.1 µM]	14.2%
Cc1ccc2c(c1)CC1(CN2C)C(=O)OC2(CCCCC2)OC1=O	-0.1%	-18.5%	6.6%	-15.8%	-6.3%	-0.2%	12.0%	-6.3%
COc1cc(CCC(=O)OCC(N)=O)cc(OC)c1OC	.	-7.1%	8.2%	.	2.4%	13.0%	8.6%	.
CC(=O)c1c(C)[nH]c(C(=O)CSc2nc3ccccc3c(=O)n2CCCO)c1C	.	2.1%	-0.4%	.	10.0%	5.9%[46.1 µM]	-18.4%[46.1 µM]	.
CCOCCCNC(=O)C(c1ccc(C)cc1)N(Cc1ccc2c(c1)OCO2)C(=O)c1ccc(NC(C)=O)cc1 (stereo not given)	-0.7%	-18.6%	.	.	.	?	?	?
